Assay outcomes deposited in PubChem by Vanderbilt University.
GIRK2 act = opens human GIRK2 potassium channels; P48051; HEK293-GIRK2 thallium flux, Thallos fluorescence; calls only for hits at 25 µM; actives 0.05% (n = 63,000); AID 1259325;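 active means among the strongest 0.2% of first-round signals and kept after retests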;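 further: first round at about 10 µM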
Target sequence (P48051 whole entry, looked up): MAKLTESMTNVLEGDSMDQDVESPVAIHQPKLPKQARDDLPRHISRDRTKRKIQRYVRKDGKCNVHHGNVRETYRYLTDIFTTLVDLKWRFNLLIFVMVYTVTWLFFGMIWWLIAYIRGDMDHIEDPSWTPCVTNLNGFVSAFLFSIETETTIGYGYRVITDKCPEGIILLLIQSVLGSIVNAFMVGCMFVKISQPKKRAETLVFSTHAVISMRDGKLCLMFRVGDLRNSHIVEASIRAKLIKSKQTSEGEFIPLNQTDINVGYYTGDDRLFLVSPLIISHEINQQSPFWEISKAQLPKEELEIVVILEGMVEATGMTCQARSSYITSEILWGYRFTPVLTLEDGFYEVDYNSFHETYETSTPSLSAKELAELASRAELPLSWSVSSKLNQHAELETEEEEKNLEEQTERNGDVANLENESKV
Calls only; i = inactive.

GIRK2 act,SMILES
i,COc1ccccc1CNC(=O)C(=O)NCC1OCCCN1S(=O)(=O)c1ccccc1 (stereo not given)
i,COCCn1nnn(-c2ccc(NC(=O)C3(c4ccc(Cl)cc4)CCCC3)cc2)c1=O
i,COc1ccc(C(=O)N2CCN(c3oc(-c4ccco4)nc3C#N)CC2)cc1OC
i,O=C(NCc1cc(-c2ccncc2)n(C2CCCC2)n1)c1cc(Cl)ccc1Cl
i,Cc1cc(C)n(-c2cc(NC(=O)COc3ccc(Cl)c(C)c3)ncn2)n1
i,Cc1nn(C2CCS(=O)(=O)C2)c(C)c1N1CCN(C(=O)/C=C/c2cccs2)CC1 (stereo not given)
i,Cc1nn(-c2ccccc2)c(C)c1N1CCN(S(=O)(=O)c2c(C)noc2C)CC1
i,COc1ccc(CNC(=O)c2ccc(=O)n(C(C)C)n2)cc1
i,COc1cccc(NC(=O)NCc2cc(C)oc2C)c1OC
i,COc1cccc(NC(=O)c2sccc2S(=O)(=O)N2CCN(c3cccc(Cl)c3)CC2)c1
i,CSc1cccc2sc(N(Cc3ccco3)C(=O)COc3ccccc3)nc12
i,CCOC(=O)c1ccc(NC(=O)CSc2nc3c(-c4ccccc4)csc3c(=O)n2C)cc1
i,Cn1cc(C2=C(c3cn(C)c4ncccc34)C(=O)NC2=O)c2ccccc21
i,O=C1CC(c2cccs2)CC(=O)N1Cc1cccc(C(F)(F)F)c1
i,O=C(Nc1cc(N2CCCC2)ncn1)C(c1ccccc1)c1ccccc1
i,COCCN(Cc1ccncc1)C(=O)NCc1ccc(OC)c(OC)c1
i,O=C(C1CCN(c2cc(Oc3ccccc3)ncn2)CC1)N1CCN(c2cccc(Cl)c2)CC1
i,O=C(NCc1ccc(Cl)cc1)Nc1nnc(-c2ccsc2)o1
i,COC(=O)C1=C(C)Nc2nc(SC)nn2C1/C=C/c1ccccc1 (stereo not given)
i,CCS(=O)(=O)N1CCCc2cc(NS(=O)(=O)c3ccc(OC)cc3OC)ccc21
i,COc1ccc(NC(=O)C2COc3ccccc3C2)cc1 (stereo not given)
i,Cc1nnsc1C(=O)NC1CCCC(OC(=O)Nc2ccc(F)cc2)C1 (stereo not given)
i,CC1CN(C(=O)C(=O)c2cn(CC(=O)N3CCOCC3)c3ccccc23)CC(C)O1 (stereo not given)
i,Cc1ccc(N2CN(CC(=O)NC3CCc4ccccc43)S(=O)(=O)c3cccnc32)cc1 (stereo not given)
i,O=C(CSc1nnc(N2CCN(c3ccc(F)cc3)CC2)s1)Nc1ccc2c(c1)OCCO2
i,CN(C)c1cccc(C(=O)N2CCOC(c3cc(Cl)cc(Cl)c3)C2)c1 (stereo not given)
i,O=C(Nc1ccc(Oc2ccccc2)cc1)C(=O)Nc1nccs1
i,CCCNC(=O)Cn1nc2nc(Nc3ccc(F)cc3)ccn2c1=O
i,CCCN1CCCc2cc(CCNC(=O)C(=O)NCCc3ccccc3)ccc21
i,O=C(C1CCN(c2cc(Oc3ccccc3)ncn2)CC1)N1CCN(c2ccccc2F)CC1
i,CC(O)C(O)(C(=O)OCc1ccccc1NC(=O)CCC(=O)O)C(C)O (stereo not given)
i,O=C(c1cc(-c2cccs2)[nH]n1)N1CCN(c2nc3c(C(F)(F)F)cccc3s2)CC1
i,O=C(NCC1CCN(c2cnccn2)CC1)c1cc(=O)c2ccccc2o1
i,O=C(c1ccc2ncsc2c1)N1CCC(Oc2ccc(C(F)(F)F)cn2)CC1
i,COc1ccc(CC(=O)Nc2ccc(Cn3cnc(C(=O)Nc4ccc(OC)cc4)c3)cc2)cc1
i,Cn1c(=O)[nH]c(=O)c2c1nc(NCc1cccnc1)n2CC(O)COc1ccccc1 (stereo not given)
i,Cc1ccc(S(=O)(=O)c2c(C)nn(C(C)(C)C)c2OC(=O)c2ccc(C)c([N+](=O)[O-])c2)cc1
i,Cc1ccc2c(c1)NC(=O)c1cc(NC(=O)NCc3cccs3)ccc1O2
i,COc1ccc(OC)c(-c2cc(C(=O)N3CCC(C(=O)Nc4nccs4)CC3)[nH]n2)c1
i,COc1ccc(-c2nnc(NC(=O)c3ccc(OC)c(OC)c3)o2)c(OC)c1
i,COC(=O)c1sccc1S(=O)(=O)Nc1cccc(SC)c1
i,CCOC(=O)CNC(=O)CN1CCN(Cc2nc3ccccc3n2Cc2ccccc2)CC1
i,CCOc1ccc(C2c3c(oc4ccc(C)cc4c3=O)C(=O)N2c2cc(C)on2)cc1OC (stereo not given)
i,O=C(CCn1cnc2c([nH]c3ccccc32)c1=O)N1CCN(c2ccc(F)cc2)CC1
i,COc1ccc(Cl)cc1S(=O)(=O)NCCN1CCOCC1
i,O=C(Nc1cccc2ccc(-n3ccnc3)nc12)c1ccc2c(c1)OCO2
i,O=C(CSc1nnc(-c2ccncc2)o1)Nc1cccc(Cl)c1Cl
i,Cc1[nH]nc2c1N=C(c1ccccc1Cl)c1cc([N+](=O)[O-])ccc1N2
i,COc1ccc(CCNC(=O)NCCC(O)c2ccccc2)cc1 (stereo not given)
i,Cc1cc(C)n(-c2ccnc(N3CCC(C(=O)N4CCN(c5ccccn5)CC4)CC3)n2)n1
i,COc1ccc(Cc2nnc(C3CCN(S(=O)(=O)c4cccnc4)CC3)s2)cc1
i,O=C(NCc1ccc2c(c1)OCO2)C1CCCN(c2ccc(-c3ccc(F)cc3)nn2)C1 (stereo not given)
i,CSc1ccc(/C=C2\C=C(CC(=O)NCc3cccc(Br)c3)c3cc(F)ccc32)cc1
i,O=C(c1cccs1)N1CCCC(c2nnc(C(F)(F)F)o2)C1 (stereo not given)
i,CCOC(=O)C1=C(C)NC(=O)NC1c1c(O)ccc2ccccc12 (stereo not given)
i,COc1ccccc1OCC(=O)NCCN1CCN(c2ccccc2F)CC1
i,CC(C)CC1OC(=O)C2C(C)CCN2C(=O)CCNC(=O)C(Cc2ccccc2)NC(=O)C(C(C)C)N(C)C(=O)C(C(C)C)N(C)C1=O (stereo not given)
i,O=C(CN1C(=O)SC(=C2CCCCC2)C1=O)Nc1ccc(F)cc1
i,CN(C)CCOC(=O)c1cccc2c1-c1ccccc1C2=O
i,O=C(Nc1cccnc1)c1ccc(-n2cccn2)nn1

Ordered by SMILES length (rising): some entries from above
GIRK2 act,SMILES
i,COC(=O)c1sccc1S(=O)(=O)Nc1cccc(SC)c1
i,CCOC(=O)CNC(=O)CN1CCN(Cc2nc3ccccc3n2Cc2ccccc2)CC1
i,O=C(NCc1ccc2c(c1)OCO2)C1CCCN(c2ccc(-c3ccc(F)cc3)nn2)C1 (stereo not given)
i,CC(C)CC1OC(=O)C2C(C)CCN2C(=O)CCNC(=O)C(Cc2ccccc2)NC(=O)C(C(C)C)N(C)C(=O)C(C(C)C)N(C)C1=O (stereo not given)

(further entries)
GIRK2 act,SMILES
i,CC(=O)Nc1ccc(OC(=O)c2cc3cc(Cl)ccc3oc2=O)cc1
i,CCc1ccc(NC(=O)Cn2cc(S(=O)(=O)c3ccc(Cl)cc3)c(=O)c3ccccc32)cc1
i,O=C(CCc1ccccc1)NCCCS(=O)(=O)N1CCc2ccccc2C1
i,O=C(CSc1ncccc1C(=O)O)Nc1ccc(F)cc1F
i,Cn1cc(NC(=O)Nc2cccc3ccccc23)c2ccccc21
i,COc1ccc(C2CC3C4NN=C(CCC(=O)NCc5ccc(OC)c(OC)c5)N4C=CN3N2)cc1 (stereo not given)
i,O=C(NC(C(=O)N1CCN(C(=O)c2ccco2)CC1)S(=O)(=O)c1ccccc1)c1cccs1 (stereo not given)
i,O=C(c1ccco1)N1CCC(c2nnc(C3CC3)s2)CC1
i,COc1ccc(CCNC(=O)c2cccc(NS(=O)(=O)c3ccc(F)c(Cl)c3)c2)cc1OC
i,COc1cccc(Oc2c(C(F)(F)F)oc3cc(OC)ccc3c2=O)c1
i,CSc1ccccc1NC(=O)CNC(=O)c1c[nH]c2ccccc12
i,CCOc1ccc(C(O)=C2C(=O)C(=O)N(c3nc(C)c(C)s3)C2c2cccs2)cc1 (stereo not given)
i,CC(O)CNc1nc(Nc2ccc(F)cc2)c2n[nH]nc2n1 (stereo not given)
i,O=C(c1ccc(N2C(=O)C3CCCCC3C2=O)cc1)N1CCCCC1 (stereo not given)
i,COc1cccc(-n2nnc(C(=O)Nc3ccc([N+](=O)[O-])cc3OC)c2C)c1
i,Cn1cc(C2=C(c3cccc(N)c3)C(=O)NC2=O)c2ccccc21
i,COCCOC(=O)C1=C(C)Nc2ncnn2C1c1cccc(OC)c1 (stereo not given)
i,COCCn1c(=O)c2c(nc3n2CCCN3c2ccc(Br)cc2)n(C)c1=O
i,CCNC(=O)Cc1csc(Nc2nc(C)cc(C)n2)n1
i,O=C(c1cccc([N+](=O)[O-])c1)N(CCN1CCOCC1)c1nc2ccccc2s1
i,CCN1CCN(c2nc3c(c(=O)n(C)c(=O)n3C)n2CC(O)COc2ccc(Cl)cc2)CC1 (stereo not given)
i,CCCOc1cc(N2CCN(C(=O)c3ccc(Cl)cc3)CC2)nc(C)n1
i,COc1cc2nc(=S)n3[nH]c(CCn4c(C)nc5ccccc54)nc3c2cc1OC
i,Cc1oc2c3c(ccc2c(=O)c1-c1ccccc1)OCN(CCc1cccs1)C3
i,O=C(CCCCCn1c(=S)[nH]c2cc3c(cc2c1=O)OCO3)NCc1ccc2c(c1)OCO2
i,CCc1cccc(OCC(O)Cn2c(NCCCOC(C)C)nc3c2c(=O)[nH]c(=O)n3C)c1 (stereo not given)
i,CCC(=O)Nc1ccc(-n2nnn(CCOC)c2=O)cc1
i,COc1ccc(OCc2noc(CNC(=O)CSCc3ccccc3)n2)cc1
i,CCOc1ccc(-c2nc(=S)c3c([nH]2)Oc2ccc(Cl)cc2C3)cc1
i,Cc1ccccc1NC(=O)N1CC(c2nc(-c3ccccc3)no2)C1
i,COc1ccc(NC(=O)c2ccc3nn(CC(=O)Nc4ccc(C)c(F)c4)c(=O)n3c2)cc1
i,COc1ccc(C)cc1-n1nnc(C(=O)Nc2ccc(C)cc2C)c1C
i,CC(=O)Nc1cccc(NS(=O)(=O)c2ccc(N3C(=O)CCS3(=O)=O)cc2C)c1
i,CCOc1ccccc1NC(=O)NCC#CCN(C(C)C)C(C)C
i,COc1cc(Cl)c(C)cc1NC(=O)Cn1cnc2c(sc3cccc(F)c32)c1=O
i,O=C(NCCS(=O)(=O)N1CCOCC1)c1ccc2c(c1)OCO2
i,Cc1cc(C)cc(Nc2nc(C)cc3nn(CC(=O)Nc4ccccc4C)c(=O)n23)c1
i,COc1ccc(-c2cnoc2-c2ccc(OC)cc2O)cc1
i,COc1cc(OC)cc(-c2noc(-c3nn(-c4cccc(F)c4)ccc3=O)n2)c1
i,COc1cc(OC)c2c(=O)oc(CC(O)C(Cl)Cl)cc2c1 (stereo not given)
i,COC(=O)c1[nH]c(C)c(C(O)=C2C(=O)C(=O)N(CCN(C)C)C2c2ccccc2F)c1C (stereo not given)
i,CSc1cccc(NC(=O)Cn2cnc3c(sc4cccc(F)c43)c2=O)c1
i,CSc1cccc(NC(=O)Cn2cc(-c3nc(-c4ccc(C)cc4)no3)ccc2=O)c1
i,CCOc1ccccc1NC(=O)c1ccc(=O)n(C)n1
i,O=S(=O)(Cc1ccccc1)N1CCN(c2ccc(-n3cccc3)nn2)CC1
i,Cc1cc(NC(=O)c2cc(C)on2)n(-c2nc3ccc(F)cc3s2)n1
i,O=C(Cn1cccc(S(=O)(=O)N2CCCCCC2)c1=O)NCc1ccccc1
i,CC(C)c1ccc2oc(=O)cc(CCl)c2c1
i,NC(=O)c1cccc(Nc2nccc(Nc3cccc(F)c3)n2)c1
i,COC(=O)Cn1c(=O)c2c(nc3n(-c4ccc(C)c(C)c4)c(-c4ccccc4)cn23)n(C)c1=O
i,CC(C)(C)c1ccc(NC(=O)NCC2CCN(C(=O)c3ccoc3)CC2)cc1
i,Cc1cc(-c2nnc(NC(=O)C(C)(C)C)o2)c(C)o1
i,O=C(NCC1(CO)CC1)NC(c1ccccc1)c1ccccc1
i,O=C(c1cc2c(=O)[nH]c(-c3ccccc3)cn2n1)N1CCN(c2ccccc2)CC1
i,COc1ccc(CCNC(=O)Cn2nc3c(N4CCOCC4)nccn3c2=O)cc1OC
i,Cc1ccc(OCC(=O)NCC2(CO)CC2)cc1
i,Cc1cc(C)n(-c2ccc(C(=O)NC(C)c3ccccc3)nn2)n1 (stereo not given)
i,CS(=O)(=O)c1ccc(NC(=O)c2cccc(S(=O)(=O)N3CCOCC3)c2)cc1
i,CN1CC(C(=O)N2CCC(Oc3ccccn3)CC2)CC1=O (stereo not given)
i,COc1ccc(Cl)cc1NC(=O)Nc1nnc(Cc2ccc(F)cc2)o1

Entries from the list above with a COOH group (2):
GIRK2 act,SMILES
i,CC(O)C(O)(C(=O)OCc1ccccc1NC(=O)CCC(=O)O)C(C)O (stereo not given)
i,O=C(CSc1ncccc1C(=O)O)Nc1ccc(F)cc1F

(further entries)
GIRK2 act,SMILES
i,CCc1ccc(Nc2ncccc2S(N)(=O)=O)cc1
i,COc1cc(CNC(=O)c2cc(-c3ccc(F)cc3)c[nH]2)cc(OC)c1OC
i,CCC1CCCCN1C(=O)c1cnc2nc(C)ccc2c1Nc1cc(OC)ccc1OC (stereo not given)
i,COc1cccc2cc(C(=O)NCCn3ncccc3=O)oc12
i,Cc1cc(OCC(=O)Nc2ccc(C)c(C)c2)nc(N2CCCC2)n1
i,COc1ccc(OCCS(=O)(=O)Nc2nc3c(s2)CCCC3)cc1
i,Cc1cc(NC(=O)C(=O)NCc2ccccc2)c2ccccc2n1

Filtered by structure: the entries above with a furan ring, fused or not (8)
GIRK2 act,SMILES
i,COc1ccc(C(=O)N2CCN(c3oc(-c4ccco4)nc3C#N)CC2)cc1OC
i,COc1cccc(NC(=O)NCc2cc(C)oc2C)c1OC
i,CSc1cccc2sc(N(Cc3ccco3)C(=O)COc3ccccc3)nc12
i,O=C(NC(C(=O)N1CCN(C(=O)c2ccco2)CC1)S(=O)(=O)c1ccccc1)c1cccs1 (stereo not given)
i,O=C(c1ccco1)N1CCC(c2nnc(C3CC3)s2)CC1
i,CC(C)(C)c1ccc(NC(=O)NCC2CCN(C(=O)c3ccoc3)CC2)cc1
i,Cc1cc(-c2nnc(NC(=O)C(C)(C)C)o2)c(C)o1
i,COc1cccc2cc(C(=O)NCCn3ncccc3=O)oc12

Not all compounds are listed. The share of hits here may be higher or lower than overall.
